Rango release inh = inhibition of RanGTP-driven Rango-importin beta dissociation; O95149+P62826; 340,000 tested, 0.071% active; Biochemical FRET Rango-importin beta, RanGTP-induced dissociation; Potency, µM (series often up to 46.1 µM), for inactives: at the highest dose activity change, negative = inhibition; AID 540253; active means falling FRET ratio curve, often poorly fitted, with flat reads before Ran was added; inconclusive means other falling curves, or compound fluorescence or quenching; inactive means flat or rising ratio curve;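 also: potency is read from the fitted curve at half-maximal effect; % of control where 0% means no effect; nearly all actives have a fitted effect of over 45% in size; -100% = wells without RanGTP and RCC1; the record marks most hits as doubtful in a second field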
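Two FRET readings bracket the reaction: one 5 min after compound meets Rango–importin beta, another 45 min after RanGTP-RCC1 (0.6 uM Ran, 0.2 uM RCC1, 2 mM GTP) is added. Only the second defines inhibition.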
GLA inh pH 4.5 = alpha-galactosidase A (human) inhibition, pH 4.5; purified enzyme, 4-MU-alpha-Gal fluorescence, pH 4.5; activity change, negative = inhibition, % at 105 µM; 230,000 tested, under 10 active; inconclusive = small, poorly fitted or top-dose-only inhibition, or a rising curve; inactive = flat fitted curve, though single readings scatter; no compound was filed as active;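 also: 0% = full activity with enzyme and -100% = basal without enzyme; dose as in the result columns while the protocol names 77 µM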
Rango-impB inh = Rango-importin beta binding inhibition | 340,000 tested, 0.031% active | Q14974 | Rango CFP/YFP FRET sensor + importin beta, 45 min | AID 540263 | Potency, µM (series often up to 92.2 µM), for the others: at the top dose inhibition of complex formation; active = rising FRET ratio curve, often small or poorly fitted; inconclusive = mostly compound fluorescence or quenching in the first reads; inactive = flat curves in all reads;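 also: potency is read from the fitted curve at half-maximal effect; 0% = DMSO wells and 100% = buffer wells lacking importin beta; nearly all actives have a fitted effect of over 15% in size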
Target sequence (Q14974 whole entry, looked up): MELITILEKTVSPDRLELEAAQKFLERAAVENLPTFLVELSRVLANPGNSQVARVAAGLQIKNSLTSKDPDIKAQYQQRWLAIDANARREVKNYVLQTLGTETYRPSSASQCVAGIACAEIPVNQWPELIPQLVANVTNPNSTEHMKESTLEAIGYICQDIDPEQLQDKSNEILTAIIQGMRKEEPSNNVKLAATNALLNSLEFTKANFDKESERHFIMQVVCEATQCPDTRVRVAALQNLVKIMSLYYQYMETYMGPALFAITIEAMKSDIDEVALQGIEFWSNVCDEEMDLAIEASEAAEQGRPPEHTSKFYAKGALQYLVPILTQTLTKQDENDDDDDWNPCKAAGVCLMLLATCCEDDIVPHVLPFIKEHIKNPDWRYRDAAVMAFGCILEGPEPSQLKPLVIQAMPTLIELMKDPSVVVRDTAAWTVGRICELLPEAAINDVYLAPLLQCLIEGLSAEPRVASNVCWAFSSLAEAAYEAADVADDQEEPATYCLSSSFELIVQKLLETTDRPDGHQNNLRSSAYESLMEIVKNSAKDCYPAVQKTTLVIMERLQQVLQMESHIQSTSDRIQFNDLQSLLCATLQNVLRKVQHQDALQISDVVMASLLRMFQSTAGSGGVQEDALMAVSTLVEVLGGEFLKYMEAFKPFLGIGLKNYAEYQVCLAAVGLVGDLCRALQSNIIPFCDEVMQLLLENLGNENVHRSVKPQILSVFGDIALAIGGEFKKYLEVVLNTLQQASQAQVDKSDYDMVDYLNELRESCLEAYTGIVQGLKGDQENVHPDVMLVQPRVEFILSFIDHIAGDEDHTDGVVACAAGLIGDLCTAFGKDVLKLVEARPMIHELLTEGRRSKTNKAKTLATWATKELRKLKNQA
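FRET biosensor Rango (snurportin 1 IBB between N-terminal EYFP and C-terminal Cerulean), 50 nM in PBS/1 mM DTT/0.02% Tween-20/0.1% BSA, preincubated 5 min RT with compound; 0.125 microM importin beta added, 45 min RT, CFP/YFP FRET ratio read.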
miR-21 FLuc = raises the signal of a miR-21 reporter | 340,000 tested, under 10 active | HeLa miR-21 FLuc reporter, luciferase, 48 h | Potency, µM (highest dose often 38.3 µM), inactives show top-dose reporter change, positive = more light | AID 2288; active = well fitted rising curve with a large enough effect; inconclusive = small, poorly fitted or top-dose-only effect; inactive = no such curve, though single readings can be large or run the other way;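 also: % of control where 0% means no effect; miR-21 action dims this reporter so a rising signal means less miR-21 action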
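Using DMEM plus 10% FBS, HeLa miR-21-FLuc cells are incubated with test compounds (final up to about 40uM) for 48 hours; firefly luciferase signal is then imaged following reagent-mediated lysis.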
* marks the source's active call; other numbers are inactive results; u = inconclusive; x = no result given; & = joins results of further samples.

Values run as follows: Rango release inh	GLA inh pH 4.5	Rango-impB inh	miR-21 FLuc
- COc1cccc(N2CCN(C(=O)c3cccc(N4C(=O)NC5CC4(C)Oc4c(OC)cccc45)c3)CC2)c1 (stereo unspecified)
  -7%	x	-0.2%	1%
- Cc1ccc(-c2cc(C(=O)NCc3ccco3)no2)cc1
  17%	-2	2.5%	-39%
- COc1cc(C(c2nnnn2C(C)(C)C)N2CCN(c3nc4ccccc4s3)CC2)ccc1O (stereo unspecified)
  -1%	0	4.2%	-14%
- CCOC(=O)c1ccccc1NC(=S)N1CCCCC1
  -10%	3	0.6%	-13%
- CC(C)[C@H](NC(=O)c1ccccc1)C(=O)OCC(=O)N1CC(=O)Nc2ccccc21
  -9%	-3	1.1%	-4%
- CCN(CC)C(=O)C12CC3CC(CC(Br)(C3)C1)C2
  7%	2	6.3%	-1%
- COc1cc(NC(=O)CCNS(=O)(=O)c2cc(Br)cnc2N)cc(OC)c1
  1%	x	1.6%	1%
- CC1(C)CC(NC(=S)NCc2ccco2)CC(C)(C)N1
  1%	-1	-3.8%	-1%
- CC(C)(C)C(=O)NC(=S)Nc1cc(C(=O)O)ccc1Cl
  1%	7	4.3%	-10%
- CSc1c(CC(=O)Nc2ccccc2)n(C)c2ccccc12
  1%	x	1.3%	18%
- CN1CCN(/N=C/c2ccc(Cl)c(Cl)c2)CC1
  4%	-7	-1.5%	-65%
- COc1cccc2sc(Nc3nnc(-c4cccs4)o3)nc12
  -3%	-1	-7.6%	6%
- CC(C)=CCC/C(C)=C/CN(CC(C)O)CC(C)O (stereo unspecified)
  -6%	0	5.6%	-6%
- Cc1cc(C)n(-c2nncn2/N=C/c2ccccc2F)n1
  19%	-1	-0.4%	0%
- O=C(CN1CCN(S(=O)(=O)c2ccc(F)cc2)CC1)NCc1cccs1
  -22%	x	3.5%	x
- Cc1ccc2c(c1)cc(C)c1nnc(SCC(=O)NCc3ccco3)n12
  -4%	5	-1.7%	-3%
- CCCCN(CC)CCCNC(=O)c1ccc2c(c1)N(CC)C(=O)c1ccccc1S2(=O)=O
  -21%	x	-5.2%	-3%
- Cc1cccc(N2CC(C(=O)Nc3ccccc3N3CCOCC3)CC2=O)c1C (stereo unspecified)
  -18%	x	-2.4%	x
- CCCCC(=O)N/N=C/c1cc([N+](=O)[O-])ccc1N1CCOCC1
  -23%	6	-2.7%	0%
- CN(C)Cc1nc2c([nH]1)c(=O)n(C)c(=O)n2C
  7%	7	-0.2%	1%
- C=CCc1cccc(/C=N/c2nc3ccccc3n2CC)c1O
  -17%	-2	3.3%	-3%
- COc1ccc(-c2nn(-c3ccccc3)cc2C#N)cc1
  1%	-7	1.4%	-69%
- CN(C)S(=O)(=O)N1CCN(C(=O)c2ccccc2Cl)CC1
  11%	1	0.7%	0%
- CCOc1ccc(NC(=O)CN(C)C(=O)CSCc2c(C)noc2C)cc1OCC
  -17%	x	u	x
- COc1ccc(-c2noc(CCC(=O)Nc3cc(OC)ccc3OC)n2)cc1
  -1%	-2	-1.9%	-1%
- CCOC(=O)C1=C(c2ccccc2)OC(N)=C(C#N)C1c1ccncc1 (stereo unspecified)
  -2%	6	6.1%	-1%
- COc1ccc(N(CC(=O)NCc2ccccc2Cl)S(=O)(=O)c2c(C)n[nH]c2C)cc1
  6%	x	2.0%	0%
- CC1CCN(C(=O)COC(=O)c2cc([N+](=O)[O-])ccc2N2CCOCC2)CC1
  -15%	x	0.7%	x
- CCOc1ccccc1C(=O)OCC(=O)NCC1CCCCC1
  1%	x	0.1%	x
- COC(=O)c1cc(Br)ccc1OC(=O)c1cccnc1
  -3%	1	-1.4%	-4%

Rewritten with each value named: part of the list above
COc1ccc(-c2nn(-c3ccccc3)cc2C#N)cc1
  Rango release inh: 1%	GLA inh pH 4.5: -7	Rango-impB inh: 1.4%	miR-21 FLuc: -69%
CN(C)S(=O)(=O)N1CCN(C(=O)c2ccccc2Cl)CC1
  Rango release inh: 11%	GLA inh pH 4.5: 1	Rango-impB inh: 0.7%	miR-21 FLuc: 0%

Following part:
Values run as follows: Rango release inh	GLA inh pH 4.5	Rango-impB inh	miR-21 FLuc
- O=C(COC(=O)c1nc(Cl)ccc1Cl)NNC(=O)c1ccccc1
  5%	x	-2.0%	x
- COc1ccc(C(CNc2ncnc3sccc23)N(C)C)cc1OC (stereo unspecified)
  u	x	u	-5%
- CCOc1ccc(CCNC(=O)C2=C(C)C(=O)OC23CCC(C)CC3)cc1 (stereo unspecified)
  -9%	-3	1.8%	-1%
- COc1ccc(Oc2coc3cc(OC(=O)N4CCOCC4)ccc3c2=O)cc1
  25%	7	u	-1%
- COC(=O)c1ccc(C(NC(=O)OCc2ccccc2)/C(F)=C/[C@@H](C)C(=O)NCc2ccc(-c3ccccc3)cc2)cc1 (stereo partly specified)
  1%	-12&2	0.8%	-6%
- O=C(Nc1ccc(N2CCN(C(=O)c3cccs3)CC2)cc1)c1cccnc1
  39%	-5	-1.2%	-18%
- CC(OC(=O)CCc1nc2ccccc2c(=O)[nH]1)C(=O)Nc1ncc(Cl)cc1Cl (stereo unspecified)
  4%	-1	u	0%
- COC(=O)c1ccccc1NC(=O)COC(=O)c1cccnc1
  8%	2	0.7%	-1%
- C/C=C/C(=O)Nc1ccc(N2CCN(c3ccc(C(F)(F)F)cn3)CC2)nc1
  -2%	4	-0.9%	0%
- CCOc1ccc(C(CC(=O)O)NC(=O)C(Sc2ccccc2)c2ccccc2)cc1 (stereo unspecified)
  -15%	8	-1.9%	2%
- C=CCN(CC=C)CC(O)Cn1c2ccccc2c2ccccc21 (stereo unspecified)
  1%	-10	1.7%	4%
- COC(=O)c1ccc(/C=N/NC(=S)NC(C)C)cc1
  -5%	-5	-4.8%	-9%
- COC(=O)N1C(=O)[C@](Cc2ccccc2)(c2ccccc2)N1C(=O)OC
  -2%	x	-0.6%	3%
- O=C(NCc1ccc(Cl)cc1)c1noc2c1CCCCC2
  9%	-6	1.0%	-38%
- Cc1cccc(C2=NN(c3ccc(Br)cc3)[C@@H](C(=O)N3CCOC3=O)[C@@H]2C)c1
  5%	7	-0.5%	x
- COc1ccc(CNc2ccc3c(c2)ncn3-c2ccccc2OC)cc1
  u	1	-3.4%	-3%
- Cc1cccc2nc(CNC(=O)C3CCC(=O)N(Cc4ccccc4F)C3)cn12 (stereo unspecified)
  -8%	x	-0.1%	-4%
- CCOC(=O)C1CCCN(Cc2c(Cl)cccc2Cl)C1 (stereo unspecified)
  4%	6	2.0%	-9%
- N#Cc1nc(-c2cccs2)oc1NCc1ccco1
  -10%	16	-1.0%	-31%
- Nc1cc2c(cc1N)-c1ccccc1C2
  -17%	x	-3.5%	x
- CC1CN(C(=O)CSc2nnc(-c3ccc(Cl)cc3)n2C)CC(C)O1 (stereo unspecified)
  1%	0	u	-17%
- COc1ccc(NC(=O)Cn2cc(C(=O)C3CC3)c3ccccc32)cc1
  u	x	u	8%&-14%
- CS(=O)(=O)c1ccc(NS(=O)(=O)c2ccc(Cl)c(C(=O)NC3=NCCS3)c2)cc1
  -10%	x	4.2%	x
- Cc1coc2c1c(C)cc1oc(=O)c(CC(=O)NCCCN3CCCC3=O)c(C)c12
  -3%	x	-3.2%	0%
- O=C(NN1CCOCC1)c1ccc(Cl)cc1[N+](=O)[O-]
  -9%	x	-5.2%	0%
- CC1(C)CC(N2CCCCC2)=CC(=[N+]2CCCCC2)C1
  -19%	4	-0.1%	u
- CCC(C)NS(=O)(=O)c1ccc(OC)c(Cl)c1Cl (stereo unspecified)
  -7%	7	-1.1%	-8%
- Cc1noc(C)c1/C=N/Nc1ccc2ccccc2n1
  7%	7	0.3%	-56%
- CCOC(=O)N1CCN(C2CC(=O)N(c3ccc(Oc4ccccc4)cc3)C2=O)CC1 (stereo unspecified)
  -1%	3	0.7%	1%
- CC12CCC(C3NC(=S)NN=C31)C2(C)C (stereo unspecified)
  -1%	x	u	x

Random excerpt: 2 records from the list
Values run as follows: Rango release inh	GLA inh pH 4.5	Rango-impB inh	miR-21 FLuc
- CN(C)Cc1nc2c([nH]1)c(=O)n(C)c(=O)n2C
  7%	7	-0.2%	1%
- COc1ccc(Oc2coc3cc(OC(=O)N4CCOCC4)ccc3c2=O)cc1
  25%	7	u	-1%

(further entries)
Values run as follows: Rango release inh	GLA inh pH 4.5	Rango-impB inh	miR-21 FLuc
- CNC(=O)Nc1ccccc1C(=O)NCc1ccccc1
  -20%	7	2.4%	3%
- c1ccc(-c2nn3c(C4CCCCC4)nnc3s2)nc1
  1%	8	-0.7%	-3%
- S=C(NCCN1CCOCC1)NC1CCCC1
  2%	-5	5.4%	-5%
- CCC(=O)Nc1ccc(C=C(C(C)=O)C(C)=O)cc1
  0%	-2	-0.5%	7%
- CN(C)/C=C(\C=O)c1onc(-c2ccccc2Cl)c1C#N
  21%	8	u	-1%
- CC(C)OC(=O)c1ccc(NC(=O)c2ccco2)cc1
  46%	4	2.0%	-39%
- CN1CCN(CC(=O)Nc2nnc(-c3cccs3)s2)CC1
  1%	-1	0.7%	-24%
- Cc1ccc(C(=O)C2CCN(CC(=O)Nc3nc(C)cs3)CC2)cc1
  0%	2	-1.2%	1%
- CCc1cc(C(c2ccccn2)N2CCN(C)CC2)c(NC(=O)c2ccccc2)s1 (stereo unspecified)
  -6%	-25	0.4%	-8%
- CN1C(N)=NC(=O)/C1=C\c1ccc(Br)cc1
  -2%	x	-2.5%	-28%
- CCC(C)NC(=O)c1cc2c(=O)n3cccc(C)c3nc2s1 (stereo unspecified)
  9%	x	-1.0%	-24%
- OCC[C@@H]1C[C@H](O)[C@@H](O)[C@@]2(CCc3ccccc3CO2)O1
  6%	x	1.6%	2%
- O=C(COC(=O)C1CCN(c2ccc(C(F)(F)F)cn2)CC1)Nc1ccc(Cl)cn1
  u	x	0.4%	-19%
- CCOc1ccc(N2C(=O)CC(N3CCN(C4CCc5ccccc5C4)CC3)C2=O)cc1 (stereo unspecified)
  6%	2	0.2%	-1%
- COc1ccccc1NC(=O)N1CCN(c2ccc3nnc(-c4ccc(F)cc4)n3n2)CC1
  -3%	-9	0.2%	1%&-6%
- CC(c1ccco1)N(C(=O)c1ccccc1NS(=O)(=O)c1ccc(Cl)cc1)c1ccccn1 (stereo unspecified)
  -18%	-5	-4.4%	0%
- C=CCOc1c(Br)cc(C2NC(=O)NC(C)=C2C(C)=O)cc1OCC (stereo unspecified)
  -8%	3	0.8%	1%
- C=CCOC(=O)C1=C[C@@H](c2coc3ccccc3c2=O)C[C@@H](OCc2ccc(CO)cc2)O1
  -5%	-5	0.6%	-4%
- O=C(c1ccncc1)N1CCN(C(=O)c2ccncc2)CC1
  6%	1	0.3%	-1%
- COCCN(C(=O)CCc1nnc(Cc2c[nH]c3ccccc23)o1)C(C)C
  4%	x	0.2%	-1%
- COCc1cc(=O)n2[nH]c(C(C)(C)C)cc2n1
  -3%	2	-1.3%	2%
- Cn1cccc1C(=O)OCC(=O)Nc1ccc2c(c1)OCO2
  15%	3	-1.3%	-59%
- Cc1ccc(NCc2ccncc2)c(Br)c1
  -3%	-11	-1.0%	-9%
- COc1cc(OC)c2c(c1)C(=O)OC2OC (stereo unspecified)
  26%	3	4.4%	1%
- COC(=O)NCC1(C)CC(NC(=O)OC)CC(C)(C)C1 (stereo unspecified)
  -4%	-3	-2.5%	3%
- Cc1nn(-c2ccccc2)c(NC(=O)c2ccccc2)c1Br
  -12%	x	-1.4%	-13%
- O=C(Nc1ccc(Cl)cc1Cl)c1csc(-c2cccnc2)n1
  -7%	-1	0.2%	-7%
- Cc1ccc(S(=O)(=O)NCCC(=O)NC(C)CCc2ccccc2)cc1 (stereo unspecified)
  5%	x	-0.3%	x
- O=C(NNC(=O)C1CC1)c1cc(Br)c(Br)s1
  15%	x	-3.1%	x
- CC(C)(C)c1ccc(C(=O)NC2CCN(Cc3ccccc3)CC2)cc1
  -10%	x	u	7%
- CC(C)CN(C(=O)c1ccco1)C1CCS(=O)(=O)C1 (stereo unspecified)
  -2%	x	-0.5%	x
- CCOC(=O)CSc1ncc(-c2cccc(Cl)c2)cn1
  1%	-4	-0.2%	-6%

These rows are one share of the data (hit frequency here may not be typical).
